Menin-MLL FL inh: qHTS Assay for Inhibitors Targeting the Menin-MLL Interaction in MLL Related Leukemias: Competition With Fluorescein Labeled MLL-derived Peptide; AID 1766, 2009; Fluorescence polarization, fluorescein-MLL peptide displacement from menin; FP activity change, % at 61.4 µM; 290,000 tested, under 10 active; inconclusive = falling polarisation curve, or a change in total fluorescence; inactive = total fluorescence flat and polarisation flat or rising; no compound was filed as active; the % refers to the polarisation; negative = inhibition;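 further: % of control where 0% means no effect; inhibitors lower the polarisation; unlabelled MLL peptide was the positive control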
PINK1 modulator: A Quantitative High throughput Screen to Identify Chemical Modulators of PINK1 Expression; PINK1 immunofluorescence, high-content cytometry, 24 h; Potency, µM (doses to about 76.6 µM), without a hit: top-dose activation (PINK1 increase), most hits filed as activators; 0.2% of 410,000 active; AID 624263, 2012; active = well fitted activation curve with a large enough effect; inconclusive = small, poorly fitted or top-dose-only effect; inactive = flat fitted curve, though single readings scatter; cell line not stated here;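 further: potency means the concentration at half of the fitted maximal effect; % of control where 0% means no effect; nearly all actives have a fitted effect of over 65% in size; a mitochondrial uncoupler was the plate control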
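Cells are seeded, rested 12 hours, then given compound at five concentrations or DMSO for 24 hours. After fixation, blocking and antibody staining, PINK1 amount and mitochondrial localization are scored; CCCP serves as control.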
Sfp PPTase inh: qHTS Assay for Inhibitors of Bacillus subtilis Sfp phosphopantetheinyl transferase (PPTase); Potency, µM, without a hit: max response, negative = inhibition, most hits filed as inhibitors; Biochemical Sfp PPTase activity, qHTS; 3.5% of 310,000 active; 4'-phosphopantetheinyl transferase ffp (Bacillus subtilis), Q9F4F7; AID 1490, 2009; active means well fitted inhibition curve with a large enough effect; inconclusive means small, poorly fitted or top-dose-only effect, or another doubt; inactive means no such curve, though single readings can be large or run the other way;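 further: the enzyme is Sfp with the accession as filed and its product quenches rhodamine fluorescence; potency means the concentration at half of the fitted maximal effect; 0% = enzyme reaction without inhibitor and -100% = no enzyme wells; top concentration of the series not given in the record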
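Compounds were incubated with enzyme (final 15 nM) for 15 min at room temperature before substrate addition started the reaction. Fluorescence at 525 nm excitation, 598 nm emission was recorded immediately and after 30 minutes.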
gsp antagonist: qHTS for Antagonists of gsp, the Etiologic Mutation Responsible for Fibrous Dysplasia/McCune-Albright Syndrome: qHTS. 0.4% of 340,000 active. Potency, µM (highest dose often 76.9 µM), inactives show top-dose activity change, negative = inhibition, hits mostly inhibitors. AID 624288, 2012. gsp-mutant cells, cAMP HTRF, 30 min; control for the full effect not named in the record; active = falling curve of any shape with a large fitted effect; inconclusive = falling curve, mostly with a smaller effect; inactive = flat or rising curve; cell line not stated here;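 further: intracellular cAMP measured with PDE inhibitor Ro 20-1724 present during compound exposure; potency means the concentration at half of the fitted maximal effect; on the % scale 0 is the no-effect control and ±100 the full control effect; nearly all actives have a fitted effect of over 65% in size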
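Cells in G418 medium, seeded 16-24 h, 37C; buffer exchange to DPBS + 1 mM CaCl2, 0.5 mM MgCl2, 0.05% BSA; cpds in DMSO + […] (300 uM stock), 30 min 37C; HTRF cAMP detection.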
ClpP mod: qHTS Assay for Activators of ClpP | ATP-dependent Clp protease proteolytic subunit (Bacillus subtilis (strain 168)), P80244 | purified B. subtilis ClpP, FRET peptide cleavage, 20 min | Potency, µM (highest dose often 57.5 µM), inactives show at the highest dose activity change, negative = active | 1.9% of 340,000 active; active = well fitted falling curve with a large enough effect; inconclusive = small, poorly fitted or top-dose-only effect; inactive = no such curve, though single readings can be large or run the other way; further: potency means the concentration at half of the fitted maximal effect; the source files actives as falling curves though it sought activators and does not explain the sign; nearly all actives have a fitted effect of over 65% in size; many hits overshoot -100%
Target sequence (P80244 whole entry, looked up): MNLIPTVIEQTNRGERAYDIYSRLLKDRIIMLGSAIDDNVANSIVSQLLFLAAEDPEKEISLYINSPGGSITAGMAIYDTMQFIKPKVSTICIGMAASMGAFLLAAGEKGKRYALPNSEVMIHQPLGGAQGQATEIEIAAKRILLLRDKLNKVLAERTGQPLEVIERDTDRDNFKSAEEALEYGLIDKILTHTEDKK
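ClpP 10 microg/mL final, pH 8 Tris/KCl buffer with BSA, glycerol, Tween-20; compound pinned in; FRET-FV substrate; RT 20 min; Ex320/Em430; ΔFRET vs ADEP 5.8 microM, DMSO, no enzyme.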
D2 ag: Beta-Arrestin HTS for Positive Allosteric Modulators of the Human D2 Dopamine Receptor: Agonists. activation, % (no concentration beside the values). DiscoveRx PathHunter D2 beta-arrestin, luminescence, 90 min; 100% = 57 uM dopamine signal. D(2) dopamine receptor (Homo sapiens), P14416. 0.084% of 360,000 active. AID 624465, 2012; in the data active = activation above about 40%; inconclusive = about 15% to 40%; inactive = below about 15%; further: compound concentration not given in the record; the text of the record calls up to 30% inactive
Target sequence (P14416 whole entry, looked up): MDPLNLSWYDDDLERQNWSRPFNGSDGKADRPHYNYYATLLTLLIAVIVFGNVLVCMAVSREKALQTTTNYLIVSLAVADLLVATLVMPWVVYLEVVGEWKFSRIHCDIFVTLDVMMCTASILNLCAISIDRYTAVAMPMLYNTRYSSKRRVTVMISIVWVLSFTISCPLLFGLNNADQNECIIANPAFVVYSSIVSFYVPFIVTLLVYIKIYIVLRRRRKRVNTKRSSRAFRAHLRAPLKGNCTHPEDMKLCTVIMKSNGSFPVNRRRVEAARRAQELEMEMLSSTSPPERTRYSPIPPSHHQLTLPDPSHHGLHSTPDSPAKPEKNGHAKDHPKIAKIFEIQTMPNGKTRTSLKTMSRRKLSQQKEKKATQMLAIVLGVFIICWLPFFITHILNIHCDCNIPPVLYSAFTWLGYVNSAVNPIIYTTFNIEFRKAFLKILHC
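DiscoveRx PathHunter D2 beta-arrestin cells (2,100/well) attached overnight, then compound-stimulated 90 min at 37 C in HBSS/10 mM HEPES/0.1% Tween-20 buffer; beta-galactosidase complementation read by luminescence after 1 h at ambient temperature. Dopamine 57 uM final (EC100) as control.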
gsp agonist: qHTS for Agonist of gsp, the Etiologic Mutation Responsible for Fibrous Dysplasia/McCune-Albright Syndrome: qHTS | Potency, µM (top dose mostly 76.9 µM), for inactives: top-dose activation (cAMP increase), usual class: activators | gsp mutant cells, cAMP HTRF, 30 min; control for the full effect not named in the record | 0.13% of 340,000 active | AID 624287, 2012; active = well fitted activation curve with a large enough effect; inconclusive = small, poorly fitted or top-dose-only effect, or another doubt; inactive = no such curve, though single readings can be large or run the other way; cell line not stated here;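 further: phosphodiesterase inhibitor Ro 20-1724 added with compounds to block cAMP breakdown; potency means the concentration at half of the fitted maximal effect; nearly all actives have a fitted effect of over 60% in size; about a fifth of the inactives were tested at one dose only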
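Cells stably selected in G418 were plated at 2000/well, grown 16-24 hr, then given compounds in DMSO with the PDE inhibitor […] (300 uM solution added) for 30 min at 37C; cAMP was read by HTRF.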
Numbers without * were called inactive; u = inconclusive; x = no result given; & = joins results of further samples; [ ] = remark or other dose.

SMILES | Menin-MLL FL inh | PINK1 modulator | Sfp PPTase inh | gsp antagonist | ClpP mod | D2 ag | gsp agonist
CC(C)C[C@H](NC(=O)C1CCN(S(=O)(=O)c2ccccc2)CC1)C(=O)NCc1ccncc1 | x | 0.1% | 9% | 23% | 0.5% | -4.0 | 17%
Cc1noc(NS(=O)(=O)c2ccc(NC(=O)CSc3nnc4c(n3)[nH]c3ccccc34)cc2)c1C | 5.0 | -1.6% | 22% | 7% | -1.6% | 1.2 | u
CSC(=O)NC12CC3CC(CC(C)(C3)C1)C2 | 2.7 | u | 19% | 3% | -1.6% | 1.1 | -54%[inhibitor]
COC1CCN(C(=O)CC2C(=O)NCCN2CC2CCCCC2)CC1 (stereo not drawn) | -6.4 | 1.0% | 13% | 7% | x | -0.4 | -10%
COc1ccccc1-c1ccc(SCc2ccc(C)cc2)nn1 | -2.5 | 1.7% | -2% | -14% | -5.7% | -0.8 | -29%[15.4 µM]
CCN1CCN(c2ccc(S(=O)(=O)N3CCOCC3)cc2NC(=O)c2ccc(Cl)s2)CC1 | x | -6.9% | x | 1% | -2.7% | -7.7 | 2%
Cc1ccc(OCCCC(=O)Nc2ccc(S(=O)(=O)Nc3ccccn3)cc2)cc1 | -2.6 | 0.1% | 6% | 0% | x | 1.5 | 5%
CCN(c1ccc(C(=O)CN2C(=O)NC3(CCOc4ccccc43)C2=O)cc1)S(C)(=O)=O (stereo not drawn) | x | -0.1% | x | -2% | -2.0% | 7.0 | 13%
CCOc1ccc(NC(=O)CC(Cc2cc(C)cc(C)c2)C(=O)O)cc1 (stereo not drawn) | 0.3 | 3.2% | 8% | -4% | -0.2% | 1.2 | 13%[15.4 µM]
CCOc1ccc(S(=O)(=O)Nc2cccnc2)cc1 | -0.1 | -0.4% | 12% | -21% | 2.0% | -0.9 | -5%
CC(=O)NC1(C)CCC2CC1C(C)=NC2(C)C (stereo not drawn) | x | 1.7% | x | x | 0.1% | 3.8 | x
O=CNc1ccc(S(=O)(=O)NCc2ccccc2)cc1 | 0.6 | -4.2%[38.3 µM] | 1% | -2% | -1.8% | 0.2 | -17%
COc1ccc2nc(SCC(=O)Nc3c(C)cc(C)cc3C)[nH]c2c1 | 3.2 | 2.9% | 15% | 2% | -2.8% | -1.4 | -1%
COc1ccc(N2CCN(C(=O)CCCCCn3c(=S)[nH]c4cc5c(cc4c3=O)OCO5)CC2)cc1 | x | 1.3% | 11% | 3% | -1.9% | 2.1 | 11%
CC(C)C(C)(C#N)NC(=O)CSc1nc2scc(-c3ccc(F)cc3)c2c(=O)n1Cc1ccccc1 (stereo not drawn) | 9.1 | 1.1% | 16% | -11% | -4.5% | -2.7 | 1%
CC(C)CN1C(=O)/C(=C(/C#N)C(=O)NC2CCCCC2)c2ccccc21 | 0.6 | 4.9% | 7.1µM* | -1% | x | 3.6 | 25%
CC(C)n1c(O)c(N=Nc2ccccn2)c2ccccc21 | 6.8 | -0.5% | 50µM* | 3% | -1.8% | -2.8 | -15%
O=C(O)CN1C(=O)C(=O)N(Cc2c(F)cccc2Cl)C1=O | -2.6 | -1.2% | 4% | 7% | -4.2% | -0.9 | u
CCCc1c(C(=O)Nc2ccc(N3CCOCC3)cc2)cnn1-c1ccccc1 | -2.3 | 9.8% | -11% | -10% | x | 1.6 | -14%[15.4 µM]
CCCCNC(=O)COC(=O)c1ccc(SC)cc1OC | -0.3 | -1.0% | 1% | -6% | x | 5.6 | 16%
c1ccc(-c2ncc3ccccn23)cc1 | 4.6 | 0.3% | 16µM* | -7% | x | -4.0 | 3%[15.4 µM]
CCCCNC(=S)NNC(=O)c1csc(C(C)C)c1 | 0.1 | -3.2%[38.3 µM] | 10% | 1% | 2.9% | -7.5 | -7%
Cc1cccc(NC(=O)CSc2nc3ccccc3c3nc(CCc4c(C)n[nH]c4C)nn23)c1 | 0.0 | -1.3% | 0% | -10% | 0.1%&0.8% | 1.8 | 4%
Cc1ccc(Sc2ncnc3onc(C)c23)c(C)c1 | -0.9 | 2.8% | 6% | -7% | -0.1% | -4.0 | u
COc1cc(CNn2nnnc2N)cc(Br)c1OCc1c(Cl)cccc1Cl | 1.0 | -0.9% | 4% | 40µM* | 0.2% | 1.0 | -3%
Remaining list, next part
SMILES | Menin-MLL FL inh | PINK1 modulator | Sfp PPTase inh | gsp antagonist | ClpP mod | D2 ag | gsp agonist
Cc1ccsc1C(=O)OCC(=O)c1cc(C)n(CC2CCCO2)c1C (stereo not drawn) | 1.2 | -2.9% | 15% | -12% | -0.8% | -0.2 | -36%[inhibitor]
CCC(CC)C(=O)Nc1cccc(C(=O)Nc2ccc(OC)cc2[N+](=O)[O-])c1 | 8.6 | u | 17% | 0% | -0.2% | -0.4 | -39%[inhibitor]
O=C(CN1C(=O)S/C(=C/c2cccn2-c2ccc(O)cc2)C1=O)N1CCCC1 | 3.2 | 5.9% | 9% | -12% | x | 2.0 | u
CC1(NC(=O)Cc2ccc(S(=O)(=O)N3CCOCC3)s2)CCS(=O)(=O)C1 (stereo not drawn) | x | -0.7% | x | 10% | -0.7% | 4.5 | 4%
CC1=C(C(N)=O)C(c2ccc(Cl)cc2Cl)n2ncnc2N1 (stereo not drawn) | -0.7 | -0.6% | 1% | 9% | 1.0% | -4.1 | -27%
CCn1c(SCC(=O)Nc2cc(C)on2)nnc1-c1ccc(OC)cc1 | 0.2 | 1.0% | 8% | -26% | x | -2.7 | 2%[15.4 µM]
CC(C)(Cc1ccc(O)cc1)NC(=O)c1ccccc1 | -1.9 | -0.6% | 10% | 3% | -2.7% | 5.0 | 11%[15.4 µM]
Clc1c2c(nc3ccccc13)CCC2 | -1.9 | 2.6% | 2% | 4% | 0.6% | -1.1 | -22%
CCc1nnc(NC(=O)c2ccc(S(=O)(=O)N3CCCCC3)cc2)s1 | -0.6 | 1.9% | 10% | x | x | 1.6 | 13%[15.4 µM]
Cc1cc(C)n(-c2ncc3c(n2)N(C)CCOC3=O)n1 | -1.6 | 1.9% | 5% | 2% | -1.5% | -5.1 | 0%[15.4 µM]
CC1CCCN(S(=O)(=O)CCNC(=O)c2ccccc2)C1 (stereo not drawn) | x | 0.6% | x | -7% | -81% | -0.4 | 21%[15.4 µM]
Cc1nc2c(C(=O)N3CCCC3)cnn2c(C)c1Cc1c(F)cccc1Cl | 3.3 | -2.4%[38.3 µM] | -5% | -1% | u | 0.3 | -5%
CCNC(=O)n1nccc1C(C)Oc1cccc(C(F)(F)F)c1 (stereo not drawn) | 1.0 | 1.5% | 18% | -17% | -0.5% | 2.6 | 3%
Cc1csc(NC(=O)C(NC(=O)c2ccccc2F)C(C)C)n1 (stereo not drawn) | -1.0 | -0.8% | -1% | 7% | x | 0.5 | -3%
Cc1nnc(C)c2c(C)n(N)c(C)c12 | -1.8 | 0.9% | 13% | 3% | -27% | -2.6 | 25%
CCOCCCNC(=O)c1cc2cc3cc(OC)ccc3nc2o1 | -1.4 | 1.1% | 12% | -6% | 3.3% | 1.1 | 45%
CNC(=S)/N=C(/Nc1ccccc1)c1ccccc1 | 0.3 | 1.1% | -85% | -1% | -0.1% | 0.4 | 26%
Cc1cc(/C=C(\C#N)C(=O)O)c(C)n1-c1ccc(Br)cc1 | 0.1 | -0.8% | 2% | -30% | -1.0% | -0.1 | 23%
CCCN(CCC)C(=S)NC(=O)c1ccc(-c2ccccc2)cc1 | -1.7 | 7.7%[38.3 µM] | u | -1% | 1.2% | -1.5 | -8%
O=C(OCc1cc2ccccc2[nH]c1=O)c1cccnc1 | 0.3 | -0.3% | 6% | -2% | -19% | -1.0 | -4%
COc1cc2ccccc2cc1C(=O)OCC(=O)N(C)c1c(N)n(Cc2ccccc2)c(=O)[nH]c1=O | x | 0.8% | x | 0% | u | -1.1 | u
COc1ccc(OC)c(NC(=O)C2(C)CCN2Cc2cccc(OC)c2OC)c1 (stereo not drawn) | x | 1.9% | x | x | -0.2% | -2.1 | x
COc1ccc(NC2CCCN(C(=O)CCC3=NNC(=O)CC3)C2)cc1 (stereo not drawn) | 1.4 | -0.1% | 6% | -4% | -0.9% | 1.8 | 2%[15.4 µM]
COC(=O)c1sc2cc([N+](=O)[O-])cc(SCC(C)C)c2c1N | u | u | -11% | 6% | 4.0% | 0.7 | 6%[15.4 µM]
CCN(CC)C(=O)C1=C(C)N(CCCN2CCCC2=O)C(=O)C(CC(=O)NCCc2ccccn2)C1 (stereo not drawn) | x | 1.4% | x | x | 0.7% | -6.5 | 3%
Further compounds follow.
SMILES | Menin-MLL FL inh | PINK1 modulator | Sfp PPTase inh | gsp antagonist | ClpP mod | D2 ag | gsp agonist
O=C(NCc1n[nH]c(=S)n1-c1ccc(Br)cc1)c1cccs1 | -6.0 | 0.6% | 22% | -3% | x | 4.6 | 5%[15.4 µM]
O=C(Nc1ccc(O)cc1)C1CCCN1S(=O)(=O)c1ccc(F)cc1 (stereo not drawn) | 2.0 | 2.6% | 18% | 2% | 1.3% | -1.3 | -19%
CN(Cc1ccc2nsnc2c1)Cc1nc(Cc2cccc(F)c2)no1 | 1.3 | 1.3% | 1% | 2% | 0.0% | 0.7 | u
Oc1cccc(/C=N/NC(=S)NCCN2CCOCC2)c1O | -3.0 | -0.3% | 7% | 5% | -5.5% | 0.8 | 11%
C[C@@H]1CN([C@H](C)CO)C(=O)c2cc(C3=CCCCC3)cnc2O[C@@H]1CN(C)Cc1ccccc1C(=O)O | x | 0.6% | x | x | -18% | -1.9 | -18%
CCCn1nnnc1NCc1ccc(CC)cc1 | -5.9 | 2.3% | 3% | 7% | x | 0.8 | u
CC[C@]1(C(=O)OC)[C@H]2C(=O)N(C)C(=O)[C@H]2[C@H]2CN=C(SCc3ccc(C)cc3)N21 | x | -2.0% | x | 5% | 2.6% | 0.8 | x
